D2 potentiator = human D2 receptor positive allosteric modulation | DiscoveRx D2 beta-arrestin cells, luminescence, 90 min; 100% = 57 uM dopamine signal | potentiation, % (concentration not given with the values) | hit rate 0.23% among 360,000 | AID 624464; active = potentiation of 50% or more; inconclusive = 30% to 50%; inactive = 30% or less;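 also: compound concentration not given in the record; tested on top of an EC20 dose of dopamine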
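PathHunter D2 cells, attached overnight at 37 deg C, received compound in DMSO plus dopamine at EC20 (50 nM final) for 90 min at 37 deg C. Beta-arrestin recruitment was read as luminescence after 1 h with detection reagent at ambient temperature.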
Sfp PPTase inh = Sfp phosphopantetheinyl transferase inhibition; Potency, µM, inactives show max response, negative = inhibition, usual class: inhibitors; Q9F4F7; AID 1490; hit rate 3.5% among 310,000; Biochemical Sfp PPTase activity, qHTS; active = well fitted inhibition curve with a large enough effect; inconclusive = small, poorly fitted or top-dose-only effect, or another doubt; inactive = no such curve, though single readings can be large or run the other way;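 also: the enzyme is Sfp with the accession as filed and its product quenches rhodamine fluorescence; potency is read from the fitted curve at half-maximal effect; 0% = enzyme reaction without inhibitor and -100% = no enzyme wells; top concentration of the series not given in the record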
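Step 1, compound plus 15 nM Sfp-PPTase, 15 min, room temperature. Step 2, add rhodamine-CoA (5 uM) and BHQ-2-YbbR (12.5 uM). Step 3, read 525/598 nm fluorescence at 0 and 30 min.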
ClpP mod = qHTS Assay for Activators of ClpP. purified B. subtilis ClpP, FRET peptide cleavage, 20 min. Potency, µM (doses to about 57.5 µM), for the others: at the top dose activity change, negative = active. hit rate 1.9% among 340,000; active = well fitted falling curve with a large enough effect; inconclusive = small, poorly fitted or top-dose-only effect; inactive = no such curve, though single readings can be large or run the other way; also: potency is read from the fitted curve at half-maximal effect; the source files actives as falling curves though it sought activators and does not explain the sign; nearly all actives have a fitted effect of over 65% in size; many hits overshoot -100%
Target sequence (P80244 whole entry, looked up): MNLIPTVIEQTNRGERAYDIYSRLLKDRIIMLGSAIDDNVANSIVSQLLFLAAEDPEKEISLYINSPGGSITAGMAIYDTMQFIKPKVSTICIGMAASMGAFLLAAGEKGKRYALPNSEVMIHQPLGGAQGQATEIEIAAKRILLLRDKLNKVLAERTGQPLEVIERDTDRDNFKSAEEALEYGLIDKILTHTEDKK
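Buffer: 100 mM Tris/HCl pH8, 100 mM KCl, 0.05% low protease BSA, 2.5% glycerol, 0.01% Tween-20. ClpP 10 microg/mL final; 20 min RT; delta FRET normalized to ADEP and DMSO controls.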
TRPV1 PAM = potentiators of human vanilloid receptor 1 (TRPV1); potentiation, % at 8.33 µM; Q8NER1; hit rate 0.02% among 320,000; TRPV1-expressing cells, Fluo-8 calcium influx, capsaicin EC20 potentiation; host cell line not named in the record; control for the full effect not named in the record; AID 540277; active means potentiation above 80%; inconclusive means 30% to 80%; inactive means below 30%; also: 0% is about no effect
Target sequence (Q8NER1 whole entry, looked up): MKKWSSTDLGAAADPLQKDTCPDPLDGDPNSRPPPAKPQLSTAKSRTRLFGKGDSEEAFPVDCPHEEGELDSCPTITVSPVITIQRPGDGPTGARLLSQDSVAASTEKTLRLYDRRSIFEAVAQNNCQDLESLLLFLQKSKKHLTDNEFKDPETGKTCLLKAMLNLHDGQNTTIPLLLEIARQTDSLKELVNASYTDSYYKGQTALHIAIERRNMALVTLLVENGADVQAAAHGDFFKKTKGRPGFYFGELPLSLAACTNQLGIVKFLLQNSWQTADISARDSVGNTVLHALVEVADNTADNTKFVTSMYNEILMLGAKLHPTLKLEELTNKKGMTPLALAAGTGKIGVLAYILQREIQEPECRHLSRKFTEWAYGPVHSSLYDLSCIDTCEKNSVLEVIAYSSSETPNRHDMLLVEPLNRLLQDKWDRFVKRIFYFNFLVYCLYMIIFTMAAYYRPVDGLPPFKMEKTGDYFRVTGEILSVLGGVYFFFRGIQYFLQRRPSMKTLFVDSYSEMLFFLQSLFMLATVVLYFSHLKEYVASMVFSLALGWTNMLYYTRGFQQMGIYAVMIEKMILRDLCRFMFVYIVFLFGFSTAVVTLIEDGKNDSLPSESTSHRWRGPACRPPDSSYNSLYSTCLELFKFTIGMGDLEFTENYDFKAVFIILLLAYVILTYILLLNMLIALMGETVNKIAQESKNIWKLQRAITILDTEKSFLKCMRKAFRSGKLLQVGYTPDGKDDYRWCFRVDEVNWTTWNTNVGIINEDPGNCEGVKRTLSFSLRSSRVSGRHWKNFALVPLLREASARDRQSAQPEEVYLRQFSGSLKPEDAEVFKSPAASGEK
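Cells expressing TRPV1 were dye-loaded with Fluo-8 and read kinetically: 10 s baseline, 3 min after compound (agonist portion), then 2 min after EC20 capsaicin (allosteric enhancer portion). Calcium-bound dye fluorescence at 480/520 nm.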
gsp ag = agonists of gsp mutant (McCune-Albright syndrome); gsp mutant cells, cAMP HTRF, 30 min; control for the full effect not named in the record; Potency, µM (highest dose often 76.9 µM), for the others: at the highest dose activation (cAMP increase), most hits filed as activators; hit rate 0.13% among 340,000; active = well fitted activation curve with a large enough effect; inconclusive = small, poorly fitted or top-dose-only effect, or another doubt; inactive = no such curve, though single readings can be large or run the other way; cell line not stated here;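 also: phosphodiesterase inhibitor Ro 20-1724 added with compounds to block cAMP breakdown; potency is read from the fitted curve at half-maximal effect; nearly all actives have a fitted effect of over 60% in size; about a fifth of the inactives were tested at one dose only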
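Cells in DMEM/10% FBS with G418 were pretreated with compounds in DMSO plus […] (300 uM stock) for 30 min at 37C. cAMP was measured by HTRF (cAMP-d2 plus anti-cAMP antibody-K) after 30 min at room temperature.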
gsp antagonist = antagonists of gsp mutant (McCune-Albright syndrome). hit rate 0.4% among 340,000. Potency, µM (series often up to 76.9 µM), inactives show at the highest dose activity change, negative = inhibition, usual class: inhibitors. AID 624288. gsp-mutant cells, cAMP HTRF, 30 min; control for the full effect not named in the record; active = falling curve of any shape with a large fitted effect; inconclusive = falling curve, mostly with a smaller effect; inactive = flat or rising curve; cell line not stated here;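 also: intracellular cAMP measured with PDE inhibitor Ro 20-1724 present during compound exposure; potency is read from the fitted curve at half-maximal effect; % is scaled to controls: 0 for no effect and ±100 for the full control effect; nearly all actives have a fitted effect of over 65% in size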
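Cells in G418 medium, seeded 16-24 h, 37C; buffer exchange to DPBS + 1 mM CaCl2, 0.5 mM MgCl2, 0.05% BSA; cpds in DMSO + […] (300 uM stock), 30 min 37C; HTRF cAMP detection.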
Menin-MLL FL inh = menin-MLL binding inhibition, fluorescein peptide. Fluorescence polarization, fluorescein-MLL peptide displacement from menin. FP activity change, % at 61.4 µM. 290,000 tested, under 10 active; inconclusive = falling polarisation curve, or a change in total fluorescence; inactive = total fluorescence flat and polarisation flat or rising; no compound was filed as active; the % refers to the polarisation; negative = inhibition;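 also: % of control where 0% means no effect; inhibitors lower the polarisation; unlabelled MLL peptide was the positive control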
* marks the source's active call; other numbers are inactive results; ? = inconclusive; . = no result given; & = joins results of further samples; [ ] = another dose, or the depositor's remark.

The first 2 entries as a preview:
SMILES | D2 potentiator | Sfp PPTase inh | ClpP mod | TRPV1 PAM | gsp ag | gsp antagonist | Menin-MLL FL inh
O=C(NNC(=O)c1cnccn1)c1ccc(Cl)cc1 | 2 | ? | . | -26 | ? | 16% | 5.0
Cc1sc2ncnc(SC(C)C(=O)N3c4ccccc4Sc4ccccc43)c2c1C (stereo not given) | -10 | 12% | 1.5% | 3 | -28% | -17% | 2.0

This part in full, repeating the preview:
SMILES | D2 potentiator | Sfp PPTase inh | ClpP mod | TRPV1 PAM | gsp ag | gsp antagonist | Menin-MLL FL inh
O=C(NNC(=O)c1cnccn1)c1ccc(Cl)cc1 | 2 | ? | . | -26 | ? | 16% | 5.0
Cc1sc2ncnc(SC(C)C(=O)N3c4ccccc4Sc4ccccc43)c2c1C (stereo not given) | -10 | 12% | 1.5% | 3 | -28% | -17% | 2.0
O=C(C1CCCN(S(=O)(=O)c2cccc3nonc23)C1)N1CCC(Cc2ccccc2)CC1 (stereo not given) | -2 | -4% | -2.7% | -22 | 2% | -13% | 2.3
CCCCn1c(SCc2cc(=O)[nH]c3ccccc23)nc2c1c(=O)n(C)c(=O)n2C | . | 13% | . | 0 | . | . | -0.4
C[C@@]12C(=O)N(CCc3c[nH]c4ccccc34)CC(=O)N1[C@H]1c3ccccc3OC[C@@H]1[C@@H]2c1ccccc1 | -16 | . | -0.9% | -4 | -23% | -21% | .
CC12CN(C(=O)c3ccccc3)C3(C#N)CC1CCC23C (stereo not given) | 19 | 16% | 1.0% | -5 | -4% | -16%[15.4 µM] | -1.4
Cc1csc2ncc(C(=O)NCCc3ccccc3)c(=O)n12 | -2 | 7% | 4.6% | ? | ? | 6% | -0.6
O=C(N/N=C/c1ccc(Br)s1)c1ccccn1 | -3 | -15% | -0.2% | -19 | -3%[15.4 µM] | 7% | .
O=c1[nH]c(=O)c2[nH]c(=S)[nH]c2[nH]1 | -7 | . | . | . | -23% | 7% | .
Cn1nc(-c2ccc(OCC(=O)Nc3cccnc3)cc2)c2ccccc2c1=O | -1 | 19% | -0.1% | . | 8% | ? | 1.9
O=C(CCC(=O)N1CCOCC1)NCCc1ccc(F)cc1 | -11 | . | -3.9% | -7 | -63%[inhibitor] | 14% | .
COc1ccnc(N=CNOCc2ccc(F)cc2Cl)c1C#N | -44 | 21% | 2.7% | 11 | 1% | 0% | 2.5
O=C(Nc1ccc2ccccc2c1)c1ccc2[nH]c(=O)c(=O)[nH]c2c1 | -10 | 7% | -17% | 18 | 6% | -1% | 0.6
COC(=O)c1ccc(OC(=O)c2ccccc2F)cc1 | . | -17% | . | 10 | . | . | 1.1
Cc1cc(C)cc(OCC(=O)Nc2ccccc2C(=O)N2CCOCC2)c1 | -5 | -11% | . | -9 | -1%[15.4 µM] | 6% | .
CCOC(=O)C1CCN(Cc2nc3ccccc3c(=O)n2-c2ccc(OCC)cc2)CC1 | -7 | -9% | -1.5% | -13 | -2% | -10% | -0.8
Cc1ccc(C(=O)CSc2nnc(-c3ccco3)n2CC2CCCO2)cc1 (stereo not given) | -1 | ? | -5.5% | 14 | 4% | -1% | 4.6
CN1CCN(/N=C/c2nc(-c3cccc([N+](=O)[O-])c3)n3ccccc23)CC1 | -24 | 79µM* | -29% | 1 | -62%[inhibitor] | ? | 0.3
O=C(Nc1nc2ccsc2c(=O)s1)c1ccc(F)cc1Cl | -6 | 13% | . | -12 | -5%[15.4 µM] | ? | 0.7
CCn1c2ccccc2c(=O)c2ccccc21 | -12 | 4% | 3.5% | -10 | -3% | -10% | -3.5
COC(=O)c1ccccc1NC(=O)N1CCc2ccc(NC(=O)c3ccccn3)cc2C1 | -21 | 0% | ? | 0 | 9%[15.4 µM] | -6% | .
CN1CCCC(n2nc(Cc3ccc(Cl)cc3)c3ccccc3c2=O)CC1 (stereo not given) | -25 | 3% | -2.2% | . | . | 7% | -0.5
Cc1ccc2[nH]c3c(NCCN4CCOCC4)ncnc3c2c1 | -9 | 6% | 1.3% | 4 | 1%[15.4 µM] | -5% | 7.0
O=C(CN1c2cccc3cccc(c23)S1(=O)=O)Nc1cccc(S(=O)(=O)N2CCOCC2)c1 | 21 | ? | ? | 9 | -1% | -8% | ?
CN(C(=O)c1cccc(C(=O)N(C)c2ccccc2)c1)c1ccccc1 | -15 | 11% | 2.5% | -6 | 9% | 11% | 1.7
The results go on.
SMILES | D2 potentiator | Sfp PPTase inh | ClpP mod | TRPV1 PAM | gsp ag | gsp antagonist | Menin-MLL FL inh
N#CC1(Nc2ccc(S(N)(=O)=O)cc2)CCCC1 | -10 | . | 1.3% | . | 16% | 5% | .
CC(C)[C@H](NC(=O)c1ccco1)C(=O)OCC(=O)NC12CC3CC(CC(C3)C1)C2 | 0 | 6% | -5.3% | 2 | -8%[15.4 µM] | 2% | -0.2
CCN(C(=O)CSc1nc2ccc([N+](=O)[O-])cc2s1)c1c(N)n(Cc2ccccc2)c(=O)[nH]c1=O | -9 | . | 1.1% | . | -41%[inhibitor] | -8% | .
COc1ccc(C(=O)NCC(=O)OCC(=O)Nc2ccc(C)c(S(=O)(=O)N(C)C)c2)cc1OC | 6 | 11% | -1.8% | 23 | 29% | 15% | -0.8
CN(CC(=O)NCc1ccco1)CC(=O)Nc1cc(S(C)(=O)=O)ccc1Cl | -4 | . | . | 2 | -3%[15.4 µM] | 6% | .
COc1ccc2[nH]c(O)c(N=NC(=O)Cc3cccs3)c2c1 | 0 | -22% | -2.1% | 0 | 2% | -3% | 0.0
CCN1CCN(C(c2nnnn2Cc2ccc3c(c2)OCO3)C(C)C)CC1 (stereo not given) | -33 | 9% | 3.3% | 8 | 14% | 10% | 4.9
CCNC(=S)Nc1cc(Cl)ccc1Oc1ccccc1 | 13 | 1% | -1.0% | -10 | -35% | 3% | 1.6
O=c1cc(Cn2nnc(-c3ccc(Cl)cc3)n2)nc2sccn12 | 8 | 5% | -5.9% | -19 | ? | -16% | 0.7
CCn1c(COc2ccc(OC)cc2)nnc1SCC(=O)Nc1cc(OC)ccc1OC | 4 | 15% | -5.3% | 6 | 11% | -22% | -0.6
Cc1ccc(NC(=O)COC(=O)Cn2cnc3ccccc32)c(C)c1 | -7 | . | -1.2% | . | -2%[15.4 µM] | 4% | .
Cc1ccc2nc(NC(=O)C3CCCN(S(=O)(=O)c4cccc5nsnc45)C3)sc2c1 (stereo not given) | -1&9 | -1% | -0.5% | 7 | -3% | -16% | 16
O=C(COC(=O)Cc1c[nH]c2ccccc12)NCCc1ccccc1 | -3 | . | . | -12 | 22%[15.4 µM] | 3% | .
O=C(NCCCCNC(=O)C(F)(F)F)C(F)(F)F | -7 | 13% | . | ? | -37%[inhibitor] | 8% | 2.0
O=C(O)C1=CCCc2ccc(F)cc21 | -5 | . | . | . | 19% | 0% | .
CCCCN(C(=O)c1c(CC)noc1C)c1c(N)n(CC(C)C)c(=O)[nH]c1=O | 15 | . | -15% | -2 | -4% | 0% | .
CN(C1CCCCC1)S(=O)(=O)c1ccc(NC(=O)c2ccco2)cc1 | -23 | 22% | 1.8% | 3 | -33%[inhibitor] | 6% | -1.6
CCCc1nnc(NC(=O)CN2C(=O)c3ccccc3C2=O)s1 | -10 | -11% | -3.0% | 7 | -44% | 3% | -2.2
COc1ccc(Nc2nc(NCC3CCCO3)nc(N)c2[N+](=O)[O-])cc1 (stereo not given) | -4 | 11% | -1.1% | -3 | 8% | -5% | -2.8
Cc1ccc(S(=O)(=O)NC2CC2)cc1 | 11 | 5% | 1.4% | 1 | -3% | 14% | -3.9
O=C(Nc1ccc2c(c1)CN(Cc1ccccc1O)CC2)C1CCCO1 (stereo not given) | -11 | -2% | -0.2% | -15 | 2% | 9% | .
CC(NC(=O)C(=O)NN=C1CCCCCCC1)c1ccccc1 (stereo not given) | 8 | 3% | -1.4% | 5 | 24% | 11% | 5.7
CCOc1ccc(-c2nnc(NC(=O)c3ccc(OCC(C)C)c(OC)c3)o2)cc1 | -1 | 2% | 4.4% | -6 | ? | 1% | 1.5
Cc1nc(SCc2ccc(Cl)cc2)ncc1C(=O)O | 1 | 16% | . | -4 | 15%[15.4 µM] | -24% | -0.7
O=C(CNC(=O)c1cccc(F)c1)OCc1cc(=O)n2cc(Br)ccc2n1 | 8 | 17% | -21% | 28 | ? | 3% | 2.9
(more compounds)
SMILES | D2 potentiator | Sfp PPTase inh | ClpP mod | TRPV1 PAM | gsp ag | gsp antagonist | Menin-MLL FL inh
CC(Sc1nc2ccccc2c(=O)n1C)C(=O)N(C)C1CCCCC1 (stereo not given) | -4 | . | -2.9% | -6 | -34% | -20% | .
NC(=S)NN=C1c2cc(OCCN3CCOCC3)ccc2-c2ccc(OCCN3CCOCC3)cc21 | -11 | -7% | . | -8 | -20% | ? | -23
Clc1ccc(-n2nnnc2CN2CCOCC2)cc1Cl | -20 | 6% | -1.3% | -9 | -37%[inhibitor] | 7% | 2.8
CCn1c(=O)c(C(=O)Nc2ccccn2)c(O)c2ccccc21 | 0 | 29% | . | 4 | 19% | -1% | -0.8
CCn1nnnc1SCC(=O)N1N=C(c2cccs2)CC1c1cccs1 (stereo not given) | 12 | . | -13% | -9 | -11%[15.4 µM] | -2% | .
O=C(OCC(=O)N1CCC(Cc2ccccc2)CC1)c1ccc[nH]c1=O | 28 | -3% | -8.7% | 11 | -39% | -2% | 1.9
COc1ccc(NC(=O)Nc2c(C)n(-c3ccccc3)c(=O)n2C)cc1OC | -9 | 17% | 2.0% | 4 | 30% | 7% | 1.5
CCC(C)C(NC(C)=O)C(=O)NC(=O)NC(c1ccccc1)c1ccccc1 (stereo not given) | -17 | 14% | 0.0% | 10 | -53%[inhibitor] | 5% | 0.3
CN(Cc1ccccc1)C(=O)CCc1ccccc1 | -11 | 20% | -5.6% | -1 | 0% | 17% | 7.4

Whole records, quoted from the list.
Record of `O=C(OCC(=O)N1CCC(Cc2ccccc2)CC1)c1ccc[nH]c1=O` = D2 potentiator: 28; Sfp PPTase inh: -3%; ClpP mod: -8.7%; TRPV1 PAM: 11; gsp ag: -39%; gsp antagonist: -2%; Menin-MLL FL inh: 1.9
Record of `CCC(C)C(NC(C)=O)C(=O)NC(=O)NC(c1ccccc1)c1ccccc1` (stereo not given) = D2 potentiator: -17; Sfp PPTase inh: 14%; ClpP mod: 0.0%; TRPV1 PAM: 10; gsp ag: -53%[inhibitor]; gsp antagonist: 5%; Menin-MLL FL inh: 0.3

Screens from PubChem BioAssay.
